Screens: PubChem BioAssay, National Center for Advancing Translational Sciences (NCATS)
VDR inh: vitamin D3 receptor (human) inhibition; Potency, µM, inactives show max response, negative = inhibition, actives largely listed as inhibitors; VDR-SRC2-3 peptide fluorescence polarization, 2 h; AID 504847; P11473; 0.93% of 400,000 active; active means well fitted inhibition curve with a large enough effect; inconclusive means small, poorly fitted or top-dose-only effect, or another doubt; inactive means no such curve, though single readings can be large or run the other way; further: series mostly up to about 120 µM
Target sequence (P11473 whole entry, looked up): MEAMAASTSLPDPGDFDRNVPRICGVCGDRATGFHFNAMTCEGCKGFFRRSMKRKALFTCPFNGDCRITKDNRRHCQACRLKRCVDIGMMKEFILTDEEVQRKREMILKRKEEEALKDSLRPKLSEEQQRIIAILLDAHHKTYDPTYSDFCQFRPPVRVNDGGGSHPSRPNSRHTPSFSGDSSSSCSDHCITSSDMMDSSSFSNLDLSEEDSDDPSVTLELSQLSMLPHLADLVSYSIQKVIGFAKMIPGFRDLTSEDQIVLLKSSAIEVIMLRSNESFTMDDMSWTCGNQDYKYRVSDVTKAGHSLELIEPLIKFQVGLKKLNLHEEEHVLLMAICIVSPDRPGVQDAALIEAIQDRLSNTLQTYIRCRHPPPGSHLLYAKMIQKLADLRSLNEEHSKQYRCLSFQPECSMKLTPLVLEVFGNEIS
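Signal is fluorescence polarization, reporting how far test compounds block the interaction of VDR with the SRC2-3 coregulator peptide after a 2 h room-temperature incubation.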
Starred values were filed as active, the others as inactive; ? = inconclusive; & = joins results of further samples. On the % scale 0 is the no-effect control and ±100 the full control effect; potency means the concentration at half of the fitted maximal effect.

SMILES	VDR inh
Cc1cccc2cc(-c3nc4ccc(C(=O)O)cc4[nH]3)c(=O)oc12	20%
COc1ccc(/C=N\Nc2ccc([N+](=O)[O-])cc2[N+](=O)[O-])c(C(=O)O)c1OC	-16%
COc1cccc(CN2CC(C(=O)N(C)CC3CCOCC3)CCC2=O)c1 (stereo not given)	-3%
CCCCCCSc1ncc(C#N)c(N)n1	8%
NC(=O)[C@@H]1CCCCNc2c(I)cc([N+](=O)[O-])cc2C(=O)N[C@@H](CCC(=O)O)C(=O)N[C@@H](CO)C(=O)N1	-29%
Cc1cccc(C(=O)NNC(=O)C2CC2)c1	3%
Cc1ccc(OC(=O)CSc2nnc(-c3cccs3)o2)cc1C	6%
COc1cccc(NC(=O)c2sc3nc(C)c(C(=O)Nc4ccc(C)cc4C)c(-c4cccs4)c3c2N)c1	-24%
COc1ccc2cc(CN(CC3CCCO3)C(=S)NCc3ccco3)c(=O)[nH]c2c1 (stereo not given)	-15%
N#CCC(=O)Nc1ccc(C(=O)NCc2cccc(Cl)c2)cc1	-6%
Cn1cc(C2N3CC4(C)CN2CC(C)(C3)C4=O)c2ccccc21 (stereo not given)	?
COc1ccc2c(c1)C1(Nc3ccccc3-c3nc4ccccc4n31)C(=O)N2 (stereo not given)	2%
C=CC1=C(C(=O)O)N2C(=O)[C@@H](NC(=O)/C(=N\OCC(=O)O)c3csc(N)n3)[C@H]2SC1	-20%
O=C(CCNS(=O)(=O)c1cccs1)NCc1cccs1	-1%
O=C(NCc1ccc(F)cc1)c1cnc(N2CCCCC2)c2ccccc12	-2%
COc1ccc(Br)c(C(=O)NC(C)(C)CO)c1	4%
O=C(Nc1ccc2oc(-c3ccccc3)nc2c1)c1ccccc1F	15%
Cc1cc(C)n(-c2ccc(C(=O)NCCCN3CCOCC3)cc2)n1	-8%
Cn1c(=O)oc2cc(S(=O)(=O)CCC(=O)NCCc3ccccc3)ccc21	4%&9%
CCn1c(SC/C=C/c2ccccc2)nnc1-c1cnccn1	0%
COC(=O)C1=NN(c2ccccc2)C2C(=O)N(c3ccccc3OC)C(=O)C12 (stereo not given)	-11%
Cn1c(CN2CCOCC2)nc2cc(NC(=O)c3ccc(Cl)cc3)ccc21	8%
Cc1ccc(OCC(=O)N2CCN(S(=O)(=O)c3ccc(Cl)s3)CC2)cc1C	11%
CCOc1ccc(/C=N/n2c(COc3ccccc3)n[nH]c2=S)cc1OC	-12%
COc1ccc2c(c1)C(=O)[C@H](OC(=O)Nc1cc(OC)c(OC)c(OC)c1)[C@@H](c1ccc(OC)c(Br)c1)O2	19%
SMILES	VDR inh
Cc1nc2sc3c(c2c(=N)n1N)CC(C)(C)OC3	8%
CCC(C(=O)NCc1cccc(Br)c1)n1nc(C)c2c(C)n(-c3ccccc3)nc2c1=O (stereo not given)	-1%
Cc1ccccc1N1CC(C(=O)N2CC(C)OC(C)C2)CC1=O (stereo not given)	-15%
CC(NC(=O)c1ccco1)C12CC3CC(CC(C3)C1)C2 (stereo not given)	14%
Cc1ccc(-n2nnnc2SCC(=O)N2c3ccccc3NC(=O)C2(C)C)cc1	1%
COc1ccc(C)cc1NC(=O)c1cc(S(=O)(=O)N2CCCC2)cn1C	-14%
CC1CCCCN1C(=O)CSc1nnc2c(n1)[nH]c1ccc(F)cc12 (stereo not given)	12%
COc1ccc(/C=C(\NC(=O)c2ccc(Cl)cc2)C(=O)NCCCn2ccnc2)cc1OC	9%
Cc1nn(CC(C)C(=O)N2CCN(S(=O)(=O)c3ccc(Cl)cc3)CC2)c(C)c1C (stereo not given)	0%
COc1ccc(CCN=C(N)NS(=O)(=O)c2cc(F)ccc2F)cc1	-6%
Cc1cc(NC(=O)C2CC2)n(-c2nc3ccccc3s2)n1	-5%
NC(=O)c1nn2c(C(F)(F)F)cc(-c3ccccc3)nc2c1Br	-1%
COc1cc(NC(=O)c2ccc3snnc3c2)cc(OC)c1	21%
Cc1noc(C)c1N=Nc1ccccc1C(=O)O	-5%
O=C(O)CC(NC(=O)c1ccco1)c1ccco1 (stereo not given)	11%
O=C(NNc1nc2cc3c(cc2s1)OCO3)c1cccc(F)c1	-12%
Cc1cc(NC(=O)COc2ccc(C)c(C)c2)no1	?
Cc1ccc(OCCNC(=O)/C=C/c2ccco2)cc1C	?
Cc1ccc(-c2csc3ncn(CC(=O)N4CCOCC4)c(=O)c23)cc1C	-1%
O=C(O)CCCNc1ccc([N+](=O)[O-])c(NCCCC(=O)O)n1	5%
C=CCn1c(C)cc(C(=O)COc2ncnc3sccc23)c1C	4%
Cc1oc2c(O)c(O)ccc2c(=O)c1-c1cnn(-c2ccccc2)c1	-8%
O=C(c1ccc(-c2cc3ccccc3oc2=O)cc1)N1CCN(c2ccc(Cl)cc2[N+](=O)[O-])CC1	-2%
N#Cc1cccn1-c1nccc(-c2cccs2)n1	-2%
O=C(c1cnccn1)N1CCC[C@@]2(CCN(Cc3ccccc3)C2)C1	-22%
SMILES	VDR inh
Cc1cccc(Cc2nnc(CCC(=O)N3CCCCC3c3nccs3)o2)c1 (stereo not given)	4%
Cn1cc(S(=O)(=O)CC(=O)Nc2ccc(Br)cc2)c2ccccc21	-28%
CC(C)CC(C(=O)OCC(=O)Nc1cccc(Cl)c1)N1C(=O)C2CC=CCC2C1=O (stereo not given)	-15%
C[C@H](CO)N1C[C@H](C)[C@@H](CN(C)Cc2ccc(C(=O)O)cc2)Oc2c(NC(=O)Cc3ccccc3)cccc2C1=O	7%
Cc1oc2c(CN3CCCCC3C)c(O)ccc2c(=O)c1-c1ccccc1 (stereo not given)	13%
Cc1cc(S(=O)(=O)Nc2ccc(N3CCOCC3)cc2)ccc1Br	-2%
CCCN(CC(=O)Nc1ccc(F)c(F)c1F)C(=O)c1ccc(=O)n(Cc2ccccc2)n1	-15%
Cc1sc2ncnc(N[C@@H](Cc3ccccc3)C(=O)O)c2c1C	7%
CCc1nonc1NC(=O)c1oc2c(C)c(C)ccc2c1C	-10%
COc1ccc(C(=O)NC2CCCc3ccccc32)cc1OC1CCN(C(C)=O)CC1 (stereo not given)	-23%
NS(=O)(=O)c1ccc(CCNC(=O)CSc2nnc3ccccn23)cc1	-3%
CCCCCC(=O)Nc1cc(S(=O)(=O)N2CCOCC2)ccc1N1CCCCC1	-16%
CCOC(=O)Cn1nc(C)c(NC(=O)c2ccc(Cl)c([N+](=O)[O-])c2)c1C	2%
CC(=O)N(Cc1cccnc1)c1nc2cc(C)cc(C)c2s1	2%
COc1cc(CN2CCN(Cc3cn(C)c4ccccc34)CC2CCO)cc(OC)c1 (stereo not given)	-5%
N#Cc1c2n(c(=S)n(-c3ccccc3)c1=O)CCCCC2	12%
COc1ccc2o/c(=N\O)c(C(=O)Nc3ccc(C)cc3)cc2c1	-13%
COC(=O)c1cn(Cc2c(C)cc(C)cc2C)nn1	-3%
CCCNc1ncnc2c1cnn2C1CCCCO1 (stereo not given)	15%
O=C(COc1ncnc2cc(Cl)ccc12)c1ccc2c(c1)OCCO2	9%
CCOc1ccc(CCNC(=O)COC(=O)c2cc(OC)c(OC)cc2[N+](=O)[O-])cc1OCC	0%
O=C(CCN1C(=O)c2ccccc2S1(=O)=O)N1CCN(c2ccccc2)CC1	-12%
COc1cccc(-c2nnc(SCN3C(=O)c4ccccc4C3=O)n2C)c1	-16%
COc1ccc(-c2csc(C)n2)cc1	5%
CC1=C(C(=O)OC(C)C)C(c2c(O)ccc3ccccc23)NC(=O)N1 (stereo not given)	4%
SMILES	VDR inh
COc1ccc(C(=O)NCc2cn3c(C)csc3n2)cc1OC	-8%
O=C(O)C1C2C=CC(C2)C1C(=O)Nc1ccc(C(=O)N2CCCCC2)c(Cl)c1 (stereo not given)	11%
OC(Cc1cccnc1)c1ccccc1 (stereo not given)	10%
CCc1ccc2c(c1)CCCN2C(=O)c1ccccc1C(=O)O	14%
O=C(CCc1nnc(CCC2CCCCC2)o1)NCCc1ccccn1	26%
O=[N+]([O-])c1ccc(C(O)CN2CCN(c3ccccc3)CC2)cc1 (stereo not given)	-3%
O=C(Nc1nnc(CCc2ccccc2)s1)c1ccc(F)cc1	-4%
Cc1cc(C(=O)CN2CCCCC2)c(C)n1-c1ccc(F)cc1	-8%
O=C(NC1CCCC1)C1CCN(C(=O)c2cc(Cl)ccc2Cl)CC1	-15%
COc1ccc(-n2c(/C=C/c3ccccc3F)nc3cc(OC)c(OC)cc3c2=O)cc1Cl	5%
O=C(CN1CCN(Cc2ccccc2)CC1)NC(c1ccccc1)c1ccccc1	-27%
O=C(NCCN1CCOCC1)c1ccccc1[N+](=O)[O-]	8%
COc1ccccc1N/C=C/C(=C(C#N)C#N)N(C)C	10%
COc1cc(NC(=O)C2C3C=CC(C3)C2C(=O)O)ccc1NC(=O)c1ccccc1 (stereo not given)	-8%
Cc1ccc(C(=O)N2C3C=CC(C3)C2(C(F)(F)F)C(F)(F)F)cc1 (stereo not given)	-8%
O=S(=O)(Nc1ccc(F)cc1Cl)c1ccc(-c2cnc(C3CC3)o2)cc1	-14%
O=C(Nc1ccsc1C(=O)O)c1ccccc1	-9%
CC1(C)CC[C@@]23CC[C@]4(C)[C@@](OC2=O)(C3C1)[C@H]1O[C@H]1C1[C@@]2(C)CC[C@H](O)C(C)(C)C2CC[C@]14C (stereo not given in full)	-4%
NC(=O)C1CCN(C(=O)c2ccc(Cl)c(S(=O)(=O)NCc3ccco3)c2)CC1	0%
O=C(COc1cccc2ccccc12)NNC(=O)Nc1ccccc1	-11%
CCC(c1nnc(SC(C)C(=O)NC2CC2)n1-c1ccc(OC)cc1)N(C)C (stereo not given)	-8%
Cc1cccc(C)c1NC(=O)CNC(=O)CN1C(=O)NC2(CCc3ccccc32)C1=O (stereo not given)	-8%
Cn1c(=O)c2sccc2n2c(CCC(=O)N3CCN(c4cccc(Cl)c4)CC3)nnc12	10%
Cc1c(CCC(=O)O)c(=O)oc2c(C)c3occ(-c4ccc(Br)cc4)c3cc12	-1%
COc1ccccc1-c1cn(C(C)(C)C)nc1C	0%

Quoted at random: three records from the list.
SMILES	VDR inh
O=C(CN1CCN(Cc2ccccc2)CC1)NC(c1ccccc1)c1ccccc1	-27%
Cc1cc(C(=O)CN2CCCCC2)c(C)n1-c1ccc(F)cc1	-8%
O=[N+]([O-])c1ccc(C(O)CN2CCN(c3ccccc3)CC2)cc1 (stereo not given)	-3%

Other records
SMILES	VDR inh
CCc1c(C(=O)NNC(=S)NCC2CCCO2)csc1C (stereo not given)	-10%
CC(C)(C)c1ccc(OCC(=O)NNC(=O)Cc2cccs2)cc1	-2%
COC(=O)c1ccc(OCC(=O)c2ccc(C)c(C)c2)cc1	8%
CCOC(=O)c1oc2ccccc2c1NC(=O)c1cc(OC)cc(OC)c1	-4%
Cc1cccc(NC(=O)c2cccc([N+](=O)[O-])c2O)c1C	-18%
Cn1nnnc1Sc1ncnc2scc(-c3ccc(C(F)(F)F)cc3)c12	-17%
CN(C)c1ncc(CN2CCC(CO)(CCCc3ccccc3)CC2)s1	-2%
Cc1ccc(NC(=O)N2CCC(C(=O)NCc3ccccc3)CC2)cc1	25%
Cn1c(=O)oc2cc(S(=O)(=O)NCc3ccc(F)cc3)ccc21	-22%
COC(=O)c1c(C(=O)OC)c(-c2ccc(Cl)cc2)n2c1CS(=O)(=O)C2	?
CC(C)[C@H](NC(=O)C1CCN(S(=O)(=O)c2ccccc2)CC1)C(=O)NCc1ccccn1	-12%
CC(=O)c1cccc(N(C(=O)CNC(=O)c2cccs2)C(C(=O)NCC2CCCO2)c2ccccc2)c1 (stereo not given)	-3%
O=C(CCN1CCCC1)Nc1ccccc1	6%
C=CCn1c(=O)c2ccccc2n2c(SCC(=O)NCc3cccs3)nnc12	9%
O=C(CSc1nc(O)c(C/C=C/c2ccccc2)c(=O)[nH]1)Nc1cccc(F)c1	-14%
CCN1CCN(Cc2nc3cc(NC(=O)c4cccc([N+](=O)[O-])c4)ccc3n2CC)CC1	16%
Cc1ccc(C)c(NC(=O)CSc2nncn3c2cc2sccc23)c1	-1%
CC(=O)CSc1ncnc2scc(-c3ccc(F)cc3)c12	3%
Cc1sc(NC(=O)c2ccco2)nc1-c1ccccc1	-3%
Cc1noc(C)c1C(=O)NC1CCCc2ccccc21 (stereo not given)	2%
C=CCOC(=O)CC(NC(=O)c1ccccc1)c1ccccc1 (stereo not given)	-3%
C=CCn1c(SCC(=O)Nc2cccc(S(N)(=O)=O)c2)nnc1C1CCCCC1	2%
O=[N+]([O-])c1ccccc1S(=O)(=O)Nc1ccn(Cc2c(F)cccc2Cl)n1	-18%
COc1ccc(CCCn2ncc3c2nc(N)n2nc(-c4ccco4)nc32)cc1	-4%
Cc1cccc(NC(=S)NCCc2ccc(F)cc2)c1C	-14%

By substructure, those above with an aryl thioether with sulfur outside any ring (14)
SMILES	VDR inh
CCCCCCSc1ncc(C#N)c(N)n1	8%
Cc1ccc(OC(=O)CSc2nnc(-c3cccs3)o2)cc1C	6%
CCn1c(SC/C=C/c2ccccc2)nnc1-c1cnccn1	0%
Cc1ccc(-n2nnnc2SCC(=O)N2c3ccccc3NC(=O)C2(C)C)cc1	1%
CC1CCCCN1C(=O)CSc1nnc2c(n1)[nH]c1ccc(F)cc12 (stereo not given)	12%
NS(=O)(=O)c1ccc(CCNC(=O)CSc2nnc3ccccn23)cc1	-3%
COc1cccc(-c2nnc(SCN3C(=O)c4ccccc4C3=O)n2C)c1	-16%
CCC(c1nnc(SC(C)C(=O)NC2CC2)n1-c1ccc(OC)cc1)N(C)C (stereo not given)	-8%
Cn1nnnc1Sc1ncnc2scc(-c3ccc(C(F)(F)F)cc3)c12	-17%
C=CCn1c(=O)c2ccccc2n2c(SCC(=O)NCc3cccs3)nnc12	9%
O=C(CSc1nc(O)c(C/C=C/c2ccccc2)c(=O)[nH]1)Nc1cccc(F)c1	-14%
Cc1ccc(C)c(NC(=O)CSc2nncn3c2cc2sccc23)c1	-1%
CC(=O)CSc1ncnc2scc(-c3ccc(F)cc3)c12	3%
C=CCn1c(SCC(=O)Nc2cccc(S(N)(=O)=O)c2)nnc1C1CCCCC1	2%

This is a subset; rates above refer to the full screens.
